Screening data from PubChem BioAssay.
S aureus helic = inhibitors of S. aureus replicative helicase, primary screen, biochemical, fluorescence unwinding readout; purified S. aureus helicase, fluorescence unwinding assay; about half of the hits fall short of the stated cut; inhibition, %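 (tested at about 80 µM)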; hit rate 0.05% among 120,000;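 active = both duplicates at 50% or more, or one of them with a favoured structure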;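 note: 0% = mean of negative control wells and 100% = mean of positive control wells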
MgrA-DNA mod = S. aureus MgrA activity modulators, primary screen, biochemical, S. aureus Newman, fluorescence polarization; MgrA-DNA binding; inhibition, %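 (about 10 µg/mL by stock and volumes)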; hit rate 0.13% among 84,000; AID 602314, 2012;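 active = above 50% in either of two replicates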;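 note: 0% = protein plus DNA without compound and 100% = DNA alone without protein; higher means less MgrA bound to DNA so lower polarization; one replicate is shown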
An asterisk follows results filed as active; . = not tested or not shown. Some of the compounds tested (hit frequency here may not be typical).

| molecule | S aureus helic | MgrA-DNA mod |
| --- | --- | --- |
| CCC(C)C(C(=O)Nc1ccc(OC)c(OC)c1)N1Cc2ccccc2C1=O (stereo not drawn) | -15 | . |
| CCOc1ccccc1-c1nc(-c2ccc(-c3ccc(OC)cc3)nc2OC)no1 | 9 | . |
| CN(C)/C=C/C(=O)c1ccc2c(c1)CCC(C)(C)O2 | . | -1.4 |
| Cc1nnc(SC(=O)Cn2c3ccccc3c3ccccc32)s1 | 30 | . |
| CC1CC(C)CN(S(=O)(=O)c2ccc(C(=O)Nc3nccs3)cc2)C1 (stereo not drawn) | -14 | . |
| Cc1cc(-c2ccc(C(C)C)c(S(=O)(=O)N3CCOc4ccccc43)c2)on1 | 5 | . |
| CC(=O)Nc1ccc(Nc2ncnc3c2c(-c2ccccc2)cn3-c2cccc(C)c2)cc1 | 3 | -0.8 |
| COc1ccc(CC(=O)Nc2ccc(-c3noc(-c4ccc(Cl)cc4)n3)cc2)cc1 | 2 | . |
| NC(N)=NN=C1c2ccccc2-c2ccccc21 | 4 | . |
| Cc1ccc(C)c(NC(=O)C(OC(=O)c2ccco2)c2ccccc2)c1 (stereo not drawn) | 7 | . |
| O=C(CSc1nnc(-c2ccc(Br)cc2)n1-c1ccccc1)N/N=C/c1ccco1 | -3 | . |
| Cc1cc2c(cc(C(=O)OC(C(=O)NC3CCCC3)c3ccccc3F)n2C)o1 (stereo not drawn) | 5 | -23 |
| CC(NC(=O)c1cccs1)C(c1cccs1)N1CCN(c2ccccc2)CC1 (stereo not drawn) | -7 | . |
| O=C(CCCN1C(=O)c2ccccc2C1=O)N1CCCCC1 | 9 | -0.2 |
| O=C(O)CC(Cn1[nH]nnc1=S)c1ccccc1 (stereo not drawn) | -2 | 3.7 |
| N#Cc1ccc(OCC(=O)Nc2cc(C(F)(F)F)ccc2-n2cncn2)cc1 | -1 | . |
| Cn1cc(SCC(=O)O)c2ccccc21 | 9 | . |
| Clc1cc(-c2ccccc2)c2ccccc2n1 | 0 | . |
| COCC(C)N=C1SCCN1Cc1ccccc1 (stereo not drawn) | 6 | . |
| Cc1ccc(-n2c3c(cc(C(N)=O)c2=O)C(=O)CC(C)(C)C3)cc1 | 5 | -0.7 |
| CC(C)c1ccc(C2Nc3ccccc3S(=O)(=O)N2Cc2ccccc2)cc1 (stereo not drawn) | -9 | 1.8 |
| COc1cccc(C2C3=C(CCCC3=O)NC3=C2C(=O)CCC3)c1 | 23 | . |
| Cc1ccc(C(=O)CSc2cccc[n+]2[O-])cc1 | 13 | 1.8 |
| COc1cccc(CNC(=O)C2CCCN(C(=O)c3cnn(-c4ccc(F)cc4)c3-n3cccc3)C2)c1 (stereo not drawn) | 14 | . |
| CC1CNc2ccccc2N=C1N1CCOCC1 (stereo not drawn) | 1 | 2.0 |
| O=C(O)c1ccccc1Sc1ccccc1S(=O)(=O)NC12CC3CC(CC(C3)C1)C2 | . | 2.2 |
| COc1ccc(N2C(=O)C=CC2=O)cc1OC | 6 | 4.3 |
| Nc1cnn(C2CCCO2)c(=O)n1 (stereo not drawn) | -2 | 1.7 |
| CCOC(=O)CSc1sc(C(=O)OCC)c2c1S(=O)(=O)N(C)c1ccccc1-2 | . | -2.2 |
| COc1cc(OC)c(C(=O)NCC2CCCO2)cc1OC (stereo not drawn) | 3 | 4.7 |
| O=C(NCC(c1cccnc1)N1CCN(Cc2ccccc2)CC1)c1ccccc1 (stereo not drawn) | 3 | -0.8 |
| CCn1c2ccccc2c2nnc(SCC(=O)N=C3NC(=O)CS3)nc21 | 7 | . |
| CCN(CC)C(=O)c1sc2nc3c(cc2c1N)CCCCC3 | 11 | 0.4 |
| CCN(CC)CCNc1ccc2nnc(CCNS(=O)(=O)c3ccc(C)cc3)n2n1 | 9 | . |
| N#Cc1cc(Cl)c(N2CCCCCC2)cc1C#N | 17 | 0.2 |
| CC(=O)C(Cc1ccc([N+](=O)[O-])cc1)(Cc1c(F)cccc1Cl)C(C)=O | . | -0.7 |
| Nc1nc(-c2ccco2)nn1C(=O)Cc1ccccc1 | 3 | 1.1 |
| CC1(C)CC(=O)c2cc(OCC(=O)NCCCN3CCCC3)ccc2O1 | 1 | . |
| O=C(NCc1cccnc1)c1ccc(NC(=O)c2ccco2)cc1 | 3 | 17 |
| Cc1cc(F)ccc1NC(=O)CN1C(=O)CC(C)(C)S(=O)(=O)c2ccccc21 | 3 | . |
| COCCCn1[nH]nnc1=S | -15 | . |
| CCOC(=O)c1cnc2c(c(C)nn2C)c1Oc1ccc(Cl)cc1 | . | -1.8 |
| COC(=O)c1ccccc1S(=O)(=O)Cc1ccc(OC)c(OC)c1 | . | -0.6 |
| CCN(CC)Cc1ccc(C(=O)OC)o1 | -9 | . |
| Cc1c(CCO)sc[n+]1Cc1ccccc1 | -8 | -1.2 |
| CCC(C(=O)Nc1c(-c2ccccc2)nc2cc(C)ccn12)c1ccccc1 (stereo not drawn) | 9 | 0.6 |
| COc1cccc(CNC(=O)CSc2nc3cccnc3s2)c1OC | . | -0.2 |
| O=C(Nc1ccncc1)c1ccc2nc[nH]c2c1 | 16 | 0.5 |
| N#CCCn1nc(-c2ccccc2)cc1-c1ccccc1 | 2 | 1.9 |
| Cc1ccccc1Nc1nc(N)nc(CNCc2ccccc2)n1 | -7 | . |
| NC(=O)c1nc2n(c1N)CCCC2 | -28 | . |
| CCOC(=O)c1cnn(-c2ccc(Cl)cc2)c1C1CCNCC1 | 32 | . |
| CCC1CCCCN1C(=O)c1cc2c(C)nn(-c3ccccc3)c2s1 (stereo not drawn) | -4 | . |
| c1ccc(COn2c3c(c4c5nonc5ccc42)CCCC3)cc1 | 11 | 15 |
| Cc1cccc(C(=O)OCC(=O)Nc2ccc3c(c2)OCCO3)c1C | 15 | . |
| CN(C(=O)c1ccco1)C1CC(C)(C)N(O)C(C)(C)C1 | -1 | 2.4 |
| CN1c2ccccc2N(C)C1c1ccc(O)cc1 | 2 | . |
| CC1Cc2cc(S(=O)(=O)CCC(=O)Nc3cccnc3)ccc2N1C(=O)C1CC1 (stereo not drawn) | -15 | . |
| COc1ccc(N=Cc2cc(Br)ccc2O)c(OC)c1 | -54 | . |
| Cn1c(=NC(=O)c2ccc(Br)s2)sc2cc(F)ccc21 | 0 | . |

A different layout for four compounds above:
S aureus helic,MgrA-DNA mod,smiles
-7,.,Cc1ccccc1Nc1nc(N)nc(CNCc2ccccc2)n1
-28,.,NC(=O)c1nc2n(c1N)CCCC2
32,.,CCOC(=O)c1cnn(-c2ccc(Cl)cc2)c1C1CCNCC1
-4,.,CCC1CCCCN1C(=O)c1cc2c(C)nn(-c3ccccc3)c2s1 (stereo not drawn)

(more compounds)
| molecule | S aureus helic | MgrA-DNA mod |
| --- | --- | --- |
| Cc1ccc(S(=O)(=O)CCc2nnc(NC(=O)C3CCCN3C(=O)NC3CCCCC3)s2)cc1 (stereo not drawn) | 9 | -1.5 |
| COC(=O)c1cc(-c2ccc(OCc3ccccc3)c(OC)c2)no1 | 19 | -3.0 |
| O=C(CNc1cc(C(F)(F)F)cc(C(F)(F)F)c1)c1ccc(Cl)cc1 | . | -0.9 |
| C=CCNCc1ccc2c(c1)c1ccccc1n2CC | 18 | -3.0 |
| Cc1ccc(CCC(=O)Nc2ccccc2C(=O)O)o1 | 0 | -4.8 |
| CC(C)(C)c1ccc(Cn2c(=N)n(CC(=O)c3ccco3)c3ccccc32)cc1 | -42 | . |
| NC1=NC(c2ccc(Cl)cc2)C(C(=O)c2ccccc2)N1 (stereo not drawn) | -16 | . |
| O=C1CCC(=O)N1c1ccccc1-c1ccccc1 | -3 | -0.9 |
| Cc1ccc(-n2nnc3c(SCC(=O)NCc4ccccc4Cl)ncnc32)cc1 | 1 | -1.1 |
| OCC(CO)(CO)c1ccccn1 | -11 | . |
| CCOC(=O)CCc1nc2sc3c(c2c(=O)[nH]1)CCCC3 | 1 | . |
| CC1(C)CCc2cc(CN3CCN(Cc4ccccc4)CC3)ccc2O1 | . | -0.3 |
| O=C(CSc1nnc(-c2ccccc2)o1)N1CCc2ccccc21 | 20 | . |
| CCOc1ccc(CCNC(=O)c2cc3c(=O)oc4ccc(C)cc4c3s2)cc1 | 13 | 4.7 |
| CC1CCCC(NCCNC(=O)c2ccco2)C1 (stereo not drawn) | -2 | -11 |
| Cc1ccc(SCCC(=O)N/N=C/c2c(CO)cnc(C)c2O)cc1 | -5 | . |
| O=S(=O)(NCc1ccncc1)c1ccc(Br)cc1 | -23 | . |
| CC(=O)Nc1c2c(nn1-c1ccc(F)cc1)CSC2 | 9 | . |
| CC1=NN(c2ccccc2)C(=O)/C1=C\c1cn(C)c2ccccc12 | 11 | . |
| COc1ccc(/C=C/C(=O)N(C)C2CCS(=O)(=O)C2)cc1 (stereo not drawn) | 12 | . |
| COCCNC(=O)c1ccc(S(=O)(=O)N2CCCc3ccccc32)cc1 | -13 | . |
| Cc1ccc(S(=O)(=O)N2CCOCC2)cc1C(=O)NC(=S)Nn1cnnc1 | 8 | . |
| CN(C)c1ncnc2c1ncn2C1OC(CO)C(O)C1O (stereo not drawn) | 10 | -0.5 |
| O=C(Nc1nnc(-c2ccccc2)o1)NC1CCCCC1 | 4 | . |
| Brc1ccc(-c2nnc3sc(CN4CCCCC4)cn23)cc1 | 6 | . |
| COc1ccc(Cc2nn3c(C(C)(C)C)nnc3s2)cc1OC | -4 | . |
| COc1ccc(Nc2nc(Cl)nc(NCCN3CCOCC3)n2)c(OC)c1 | . | 0.3 |
| CCN(CC)S(=O)(=O)c1ccc2c(c1)c(=O)c(C(=O)O)cn2C | 13 | 2.3 |
| Cc1onc(-c2c(Cl)cccc2Cl)c1C(=O)Nc1ccc(F)c(Cl)c1 | . | -1.3 |
| Cc1nnc(SCc2cc(=O)[nH]c(N3CCN(c4ccccc4)CC3)n2)s1 | 4 | 1.1 |
| CC(C)(C)c1ccc(C(=O)O/N=C2\CCCc3[nH]c4ccccc4c32)cc1 | . | 3.1 |
| CCn1c(SCC(=O)Nc2ccc3c(c2)OCCCO3)nc2cc(S(N)(=O)=O)ccc21 | -20 | . |
| CCOc1nc(SCCOc2ccccc2)nc(N(C)C)n1 | . | -0.4 |
| O=C(CNC(=O)c1ccccc1)NCc1ccc(F)cc1 | -7 | . |
| COc1cccc(N=c2scc(-c3cccs3)n2CCCN2CCCC2=O)c1 | 18 | . |
| CCc1cc(C#N)c(O)cn1 | 15 | -0.6 |
| CSCC(=O)Nc1ccc(-c2ccccc2)cc1 | -16 | . |
| O=C(O)C1C2C=CC3(O2)C1C(=O)N1c2ccccc2COC13 (stereo not drawn) | 21 | 6.8 |
| CCOc1cc(C(F)(F)F)cnc1/C(N)=N/O | . | -2.0 |
| CC(C)Cc1ccc(C(C)C(=O)NC(C)Cc2c[nH]c3ccccc23)cc1 (stereo not drawn) | -7 | 0.5 |
| CCOC(=O)c1sc(N)c(C#N)c1CSc1ccc2c(c1)OCCO2 | -6 | . |
| COc1ccc(S(=O)(=O)Nc2ccc(-c3csc(C)n3)cc2)cc1 | 0 | . |
| CC(=O)n1c2c(c3cc(C)ccc31)CCCC2=O | 15 | . |
| O=C(NC1CCCCC1)c1cc(F)cc2c1OCOC2 | . | -3.5 |
| OC(CNc1ccncc1)COc1ccc(OCC(O)CNc2ccncc2)cc1 (stereo not drawn) | -7 | . |
| O=S(=O)(/N=C(\Nc1ccccc1)c1ccccc1)c1ccc(Br)cc1 | 3 | 0.6 |
| Cc1occc1C(=O)NC(C)C12CC3CC(CC(C3)C1)C2 (stereo not drawn) | 8 | -0.1 |
| O=S(=O)(c1cccs1)N1CCN(Cc2nc3ccccc3s2)CC1 | 9 | . |
| CC(=O)Nc1nc2ccc(S(=O)(=O)N3CCCC3)cc2s1 | -15 | . |
| N#Cc1ccc(/C=C/C(=O)NCc2ccccc2)cc1 | 5 | -0.7 |
| CSc1nc2sc(C)cc2c(=O)n1C | 1 | -1.5 |
| O=C(/C=C\c1ccc2c(c1)OCO2)Nc1nnc(-c2ccccc2)s1 | 0 | . |
| Cc1cc2c(cc1C)C(=O)C(c1ccccc1)=C(NCc1ccccc1)C2=O | 11 | -0.8 |
| O=C(O)CC(NC(=O)c1ccccc1Cl)c1ccccc1 (stereo not drawn) | -4 | 0.8 |
| O=C(O)C(Cc1c[nH]c2ccccc12)N1C(=O)C2CC=CCC2C1=O (stereo not drawn) | -15 | . |
| O=C([C@@H](c1ccccc1)N1Cc2ccccc2C1=O)N1CCN(Cc2ccccc2)CC1 | 3 | . |
| Cc1nn(C(=O)c2ccc(Cl)cc2)c(C)c1Sc1nnc(C(F)(F)F)n1C | . | -1.1 |
| CCC(C)NC(=O)c1ccccc1NC(=O)CN1C(=O)c2ccccc2S1(=O)=O (stereo not drawn) | -13 | . |
| Cn1c(=O)[nH]c(=O)c2[nH]c(CN3CCN(Cc4ccccc4)CC3)nc21 | 23 | -0.8 |
| CC1(C)CC(=O)CC(=NC2CCS(=O)(=O)C2)C1 (stereo not drawn) | -14 | -1.2 |

Whole records, looked up by structure. Values in the order: S aureus helic | MgrA-DNA mod
Listed for O=C(O)C(Cc1c[nH]c2ccccc12)N1C(=O)C2CC=CCC2C1=O (stereo not drawn) → -15 | .
Listed for O=C([C@@H](c1ccccc1)N1Cc2ccccc2C1=O)N1CCN(Cc2ccccc2)CC1 → 3 | .
Listed for CC1(C)CC(=O)CC(=NC2CCS(=O)(=O)C2)C1 (stereo not drawn) → -14 | -1.2
Listed for CC(=O)n1c2c(c3cc(C)ccc31)CCCC2=O → 15 | .

More entries follow.
| molecule | S aureus helic | MgrA-DNA mod |
| --- | --- | --- |
| O=[N+]([O-])c1ccc(N2CCOCC2)c(Cl)c1 | . | -1.0 |
| CC1CCN(CCCN)CC1 | 13 | . |
| Fc1ccc(Nc2nc3ccc(Cl)cc3n3cnnc23)c(F)c1 | 14 | . |
| COc1ccc(F)cc1S(=O)(=O)Nc1ccc2c(c1)N(C(C)=O)CCC2 | -3 | . |
| O=[N+]([O-])c1c(Sc2ncnc3nc[nH]c23)ccc2nsnc12 | . | 3.9 |
